# AF4-AF9 inh: inhibitors of AF4 peptide binding to AF9, primary screen, biochemical, AlphaScreen, biotin-AF4 peptide, FLAG-AF9, single point | 350,000 compounds, 0.47% hits | Protein AF-9 (Homo sapiens), P42568 | inhibition, % at 10 µM;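 active = every replicate reaching a set inhibition limit, whatever the replicate mean, cut at about 25% in these data; inconclusive = mean inhibition reaches that limit but some replicates miss it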;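 also: 0% = plate neutral control median and 100% = total signal loss; the record names both 10 and 1 µM as test concentration; the first replicate is given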
# Target sequence (P42568 whole entry, looked up): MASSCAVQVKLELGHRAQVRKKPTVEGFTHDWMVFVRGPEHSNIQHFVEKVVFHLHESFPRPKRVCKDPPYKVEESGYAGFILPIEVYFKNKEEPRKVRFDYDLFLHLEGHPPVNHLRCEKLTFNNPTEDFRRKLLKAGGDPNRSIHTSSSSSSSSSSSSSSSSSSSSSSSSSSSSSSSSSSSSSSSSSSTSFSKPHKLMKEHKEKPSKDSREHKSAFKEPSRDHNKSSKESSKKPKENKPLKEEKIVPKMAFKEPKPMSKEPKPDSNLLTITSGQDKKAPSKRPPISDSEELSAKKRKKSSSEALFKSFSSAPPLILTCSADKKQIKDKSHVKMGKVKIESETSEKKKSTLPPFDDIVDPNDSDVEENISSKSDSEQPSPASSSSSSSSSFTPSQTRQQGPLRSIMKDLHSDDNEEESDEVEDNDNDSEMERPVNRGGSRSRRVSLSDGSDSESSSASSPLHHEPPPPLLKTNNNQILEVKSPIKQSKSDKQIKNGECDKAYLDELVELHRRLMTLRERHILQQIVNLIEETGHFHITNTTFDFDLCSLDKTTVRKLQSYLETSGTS
# T cruzi inh: inhibitors of intracellular T. cruzi growth, primary screen, luminescence, NIH3T3 host cells | T. cruzi beta-gal in NIH3T3, 90 h | inhibition, % (no concentration beside the values) | 300,000 compounds, 1.4% hits | AID 1885, 2009;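 active = mean inhibition across valid replicates above about 55%, limit read from the data; inconclusive = mean below that limit but half or more replicates reach it; inactive = mean below it, under half of replicates reach it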;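 also: signal also drops with host cell toxicity which is not excluded here; 0% = plate median of DMSO wells and 100% = zero luminescence signal; higher percent means less beta-gal luminescence so fewer parasites; stock transfer was 50 nL into about 50 µL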
# Vif A3G: inhibitors of Vif binding to APOBEC3G peptide, primary screen, biochemical, TR-FRET, GST-Vif 1-94, biotin-A3G peptide, dose response retest (AID 1117319). 260,000 compounds, 0.57% hits. TR-FRET GST-Vif / biotin-A3G peptide binding; higher % means a stronger effect; test concentration not given here; strong numbers were not always called active. one-dose inhibition, %; IC50 in µM for titrated hits;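 active = above the screen mean plus three standard deviations and confirmed in dose response; inconclusive = results disagree or hit not tested in dose response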;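 also: Vif residues 1-94 fused to GST binding biotinylated APOBEC3G peptide 110-148; 0% = full assay without inhibitor and 100% = GST in place of GST-Vif; retest series ran down from 100 µM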
# rRNA inh HTS: reduced GFP signal of wild-type E. coli, primary screen, bacterial rRNA inhibitor project, GFP/RFP fluorescence, OD600, single point | E. coli WT GFP vs humanized-ribosome RFP mutants, 24 h; active compounds read low; DMSO median 0, no signal -100 | GFP signal change (wild-type ribosome), % (no concentration beside the values) | 350,000 compounds, 1.6% hits;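 active = significant combined selectivity score with lowered wild-type GFP, culture density cut under 30%, mutant RFP and density less affected; inactive = any of these conditions unmet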; also: one replicate is shown; some compounds called inactive have numbers as strong as hits
# RanGTP-Imp inh: inhibitors of RanGTP-importin-beta interaction, primary screen, biochemical, FRET, CFP-Ran, YFP-importin-beta, homogeneous; Ran GTPase (GTP-bound) - importin-beta complex; cell-free CFP-Ran/YFP-importin-beta FRET ratio; inhibition, % (concentration not given with the values); 300,000 compounds, 1.1% hits; AID 2216, 2009;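 active = most replicates above 15%; inconclusive = exactly half above 15%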;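 also: 0% = DMSO wells and 100% = Ran loaded with GDP instead of GTP; wells of about 40 µL received 100 nL stock; the first replicate is given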
# Beta cell apopt: inhibitors of cytokine-induced beta cell apoptosis, primary screen, luminescence; INS-1E cytokine-induced death, ATP luminescence, 48 h; percent of positive-control rescue, neutral wells zero; protection from apoptosis, % (concentration not given with the values); 300,000 compounds, 0.8% hits; AID 435005, 2010;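 active = all replicates at 75% or more, or half of them and the mean; inconclusive = half reach 75% but not the mean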;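 also: 0% = cytokine-treated negative control wells and 100% = positive control rescue; higher means more ATP so stronger rescue from cytokine killing; wells of about 40 µL received 100 nL stock; the first replicate is given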
# Calb FLC: C. albicans growth inhibition with fluconazole, primary screen, CaCi-2 strain, Alamar Blue fluorescence | 300,000 compounds, 0.57% hits | growth inhibition, % (no concentration beside the values) | C. albicans CaCi-2 (fluconazole-resistant clinical isolate) + fluconazole, 48 h;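 active = most replicates above 75%; inconclusive = exactly half above 75%; inactive = most below 75%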;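 also: all wells also contain fluconazole at 8 µg/ml as a sub-toxic cotreatment; 0% = median of DMSO wells and 100% = median of geldanamycin control wells; wells of about 8 µL received 7.5 nL stock; the first replicate is given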
# A1 inh: caspase 3/7 activation in MEF A1-2A-BIM cells, primary screen, A1 inhibitor project, cell-based, luminescence, HTS; 330,000 compounds, 0.066% hits; AID 2462, 2010; caspase activation, % (concentration not given with the values); Caspase-Glo 3/7 luminescence, 3 h; percent of clofoctol response, vehicle zero;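 active = over half of replicate activation scores above 10%, or exactly half above 10 with the replicate mean above 10; inconclusive = replicate mean below 10 yet half the replicates above 10; inactive = over half of replicates below 10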;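 also: wells of about 30 µL received 50 nL stock; many hits fall short of the cut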
# rRNA inh HTS OD600: further read-out of rRNA inh HTS, marked with its call; OD600 change, %; measured here: OD600 growth;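 optical density of the mix in the first replicate; 0 = DMSO median and -100 = no signal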
# rRNA inh HTS RFP: second read-out of rRNA inh HTS, no call of its own (marks repeat the call); RFP signal change, %; measured here: RFP humanized mutant strains;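 first replicate; 0 = DMSO median and -100 = no signal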
# * marks the source's active call; other numbers are inactive results; ? = inconclusive; . = no result given; & = joins results of further samples. An excerpt, so the mix of outcomes need not match the whole.
SMILES,AF4-AF9 inh,T cruzi inh,Vif A3G,rRNA inh HTS,rRNA inh HTS OD600,rRNA inh HTS RFP,RanGTP-Imp inh,Beta cell apopt,Calb FLC,A1 inh
COc1cccc(/C=N/Nc2ccnc(=O)[nH]2)c1O,2.5,-13,6%,8,1,1.1,-1.0,93*,38,-12
Cc1nn(-c2ccc(F)cc2)c(C)c1NS(=O)(=O)c1ccc2ccccc2c1,.,-5,3%,-35,-53,-6.6,0.3,.,17,-0.2
Cc1nc(Nc2cccc(C(F)(F)F)c2)nc2c1C(=O)CC(C)C2 (stereo unspecified),.,.,6%,.,.,.,5.3,8,0,0.7
O=C(Nc1ccc(F)cc1)/C(=C1/CCCCCN1)[N+](=O)[O-],-7.0,-1,-7%,9,7,-3.1,-5.4,-1,0,0.8
CCc1nnc(NC(=O)c2c(OC)cccc2OC)s1,.,-13,2%&7%,.,.,.,-4.4,-2,-12,-0.1
Nc1ccc(C(=O)Nc2ccc(Nc3ccncc3)cc2)cc1,4.7,36,0%,11,5,-0.3,1.5,8,-3,0.7
CC(=O)NC(Cc1c[nH]c2ccccc12)C(=O)NCc1ccc2c(c1)OCO2 (stereo unspecified),.,-19,3%,.,.,.,3.5,-16,-4,0.4
O=C1CCCN1CC(O)CS(=O)(=O)Cc1ccc(Cl)c(Cl)c1 (stereo unspecified),-2.2,1,-5%,0,7,7.4,2.2,-5,9,-1.1
CCOC(=O)c1cccc2c1-c1ccccc1/C2=N/O,.,-17,4%,.,.,.,-0.1,-10,24,-0.3
COc1ccc(C2=NN(Cc3ccccc3)C3C(=O)NC(=O)C23)cc1 (stereo unspecified),5.1,-7,.,-5,-4,2.3,2.3,-5,-75,0.3
CCOc1cc(N2CCOCC2)c(OCC)cc1NC(=O)COc1cccc2cccnc12,.,50,13%&22%,.,.,.,0.0,102*,101*,-0.5
COCCCNC(=O)Nc1ccc(Br)cc1Cl,.,7,1%,.,.,.,-1.0,-2,3,0.1
CC(C)C(NC(=O)c1ccccc1)C(=O)OCC(=O)N1CCCC1 (stereo unspecified),-0.4,.,-9%,-6,-14,1.1,.,-12,.,1.5
Cc1ccc(CCNC(=O)CN(c2ccc(C)cc2)S(=O)(=O)c2c(C)noc2C)cc1,-2.2,20,.,-2,4,-3.6,-4.2,0,6,0.8
CCCC(C)c1nnc(NC(=O)c2cc(C(=O)OC)cc([N+](=O)[O-])c2)s1 (stereo unspecified),-5.2,48,1%,-9,-10,1.6,1.2,5,20,0.4
CN1CCN(NC(=S)NC2CCCC2)CC1,-1.7,-10,2%,.,.,.,?,7,-17,-2.0
CCCCN(C(=O)c1ccc2c(c1)S(=O)(=O)N=C1CCCCCN12)c1c(N)n(CCCC)c(=O)[nH]c1=O,-1.0,2,-4%,12,6,2.7,4.4,4,.,1.0
Cn1nc(C(=O)N2CCN(c3ccccc3F)CC2)c2c1-c1ccccc1S(=O)(=O)C2,1.9,-2,.,-1,-19,-0.2,-1.8,-3,11,-0.4
CC(C)(C)OC(=O)N1CCC(c2cc(-c3cccs3)n[nH]2)CC1,0.7,-13,-3%,-8,6,-1.0,-0.3,-10,-5,0.4
CCOc1cc(N2CCOCC2)c(OCC)cc1NC(=O)c1ccc2ccccc2n1,38*,58*,21%,8,9,0.1,-2.4,15,1,1.4

# Of the compounds above, these have a Cl atom:
SMILES,AF4-AF9 inh,T cruzi inh,Vif A3G,rRNA inh HTS,rRNA inh HTS OD600,rRNA inh HTS RFP,RanGTP-Imp inh,Beta cell apopt,Calb FLC,A1 inh
O=C1CCCN1CC(O)CS(=O)(=O)Cc1ccc(Cl)c(Cl)c1 (stereo unspecified),-2.2,1,-5%,0,7,7.4,2.2,-5,9,-1.1
COCCCNC(=O)Nc1ccc(Br)cc1Cl,.,7,1%,.,.,.,-1.0,-2,3,0.1

# Later entries:
SMILES,AF4-AF9 inh,T cruzi inh,Vif A3G,rRNA inh HTS,rRNA inh HTS OD600,rRNA inh HTS RFP,RanGTP-Imp inh,Beta cell apopt,Calb FLC,A1 inh
CCOC(=O)c1oc2ccc(S(=O)(=O)n3nc(-c4ccccc4)cc3N)cc2c1C,2.2,39,6%,7,9,2.5,7.2,56,5,-0.4
N#CC1=C(N2CCCCC2)c2cc3c(n2C1=O)CCCC3,.,31,-7%,.,.,.,1.1,-3,1,-0.3
O=C(NC(=S)NC1CCCCC1)c1ccccc1[N+](=O)[O-],10,-5,0%,-5,-6,-1.3,.,-1,.,0.6
CC(C)c1nc(SCC(=O)Nc2ccc([N+](=O)[O-])cc2Br)n[nH]1,4.2,6,-5%,6,8,0.2,-1.9,-6,14,0.3
O=C(COC(=O)CC1CC2CCC1C2)Nc1ccc(F)cc1 (stereo unspecified),-9.6,17,2%,-7,-9,0.5,1.4,-1,20,0.2
NC(=O)N/N=C/c1sc(=O)n(-c2ccccc2)c1Cl,-5.7,0,.,4,4,2.6,?,6,-1,-0.3
O=[N+]([O-])c1ccc(OCC2CC(c3ccccc3)=NO2)cc1 (stereo unspecified),-0.9,-7,-4%,10,13,4.0,-1.7,-11,-3,0.4
CC(C)c1ccc(OCC(=O)Nc2c3c(nn2C(C)(C)C)CS(=O)(=O)C3)cc1,0.6,8,6%,0,-1,-0.2,3.0,.,-2,0.3
COc1ccc(-n2c(Cc3cccn3C)nnc2SCC(=O)Nc2ccccc2)cc1,6.7,-13,-3%&38%,1,0,3.0,-4.1,-6,-7,-0.9
COc1ccc(CCN(C)C(=O)C2CCN(C(=O)Nc3ccccc3)CC2)cc1OC,0.1,-13,7%,-2,1,-6.1,5.0,1,-5,0.6
CC(C)OCCCNC(=O)C1CCN(S(=O)(=O)N2CCCCC2)CC1,.,-1,?,.,.,.,-1.7,-2,-4,0.3
CC(=O)c1ccc(NC(=O)C(C)Sc2nnnn2C)cc1 (stereo unspecified),-4.1,-5,-1%,7,7,-7.8,-1.8,-6,-4,-0.2
O=C(COC(=O)c1c2c(nc3ccccc13)/C(=C\c1cccs1)CCC2)Nc1ccccc1,5.0,74*,3%,2,17,3.0,4.0,3,-6,0.1
COc1ccc(S(=O)(=O)N2CCC(C(=O)Oc3c(OC)cccc3OC)CC2)cc1OC,-0.4,6,.,-3,-1,3.5,1.7,1,-26,0.4
O=C(c1ccc(C(F)(F)F)cc1)N1CCN(S(=O)(=O)c2ccc3c(c2)OCCCO3)CC1,0.8,12,.,-3,2,0.6,5.8,-2,-6,0.2
O=S(=O)(c1cccc(Cl)c1)N1CN(CC2CCCO2)c2nc3ccccc3nc21 (stereo unspecified),7.4,-16,.,-4,-10,37,5.3,3,6,-0.9
C=CCC1c2cccc(C(=O)O)c2C(=O)N1c1ccc(Cl)cc1 (stereo unspecified),.,-1,-2%,.,.,.,3.4,3,-7,0.6
Cc1cc(=O)oc2cc(OCC(O)CN3CCN(c4ccc(F)cc4)CC3)ccc12 (stereo unspecified),.,20,-8%&-12%,.,.,.,-1.3,1,31,1.1
O=C([C@@H]1CCCN1C(=O)c1cccs1)N1CCN(S(=O)(=O)c2ccccc2F)CC1,1.8,.,0%,4,0,0.3,.,-1,.,-0.2
Cc1ccc(NC(=O)CN2CCN(c3ccccn3)CC2)c(Cl)c1,.,0,-3%,.,.,.,3.5,-8,-7,-1.1
Cc1cc(Cl)ccc1Oc1ccc(C(N)=O)cc1[N+](=O)[O-],.,5,-4%,.,.,.,-3.6,-2,56,0.5
CSc1cccc(NC(N)=O)c1,1.3,-30,-8%,22,-1,5.9,1.9,2,-6,-0.2
Cc1ccc(C(C)(C)NC(=O)C2CCC(=O)N(C3CCCCCC3)C2)cc1 (stereo unspecified),-1.6,8,2%,1,7,0.7,3.2,-1,1,0.8
C=Cc1ccc(CN2CCCN(Cc3ccc(F)cc3)S2(=O)=O)cc1,-4.3,0,1%,-14,-22,-1.1,0.9,0,3,-0.1
COc1ccc(OC)c(-n2c(O)cnc2Nc2nc(C)cc(C)n2)c1,.,-10,8%,.,.,.,-4.8,-7,4,0.2
CCc1ccc(OCc2nnc(SCCN3CCOCC3)n2C)cc1,.,4,6%,.,.,.,?,.,2,0.2
CCC(=NCc1ccccc1)c1c(C(F)(F)F)[nH]n(-c2nc3ccccc3s2)c1=O,.,-2,1%,.,.,.,-2.7,0,-16,0.5
COc1cc(/C=C(\C#N)c2ccccn2)cc(OC)c1O,-3.1,-21,7%,0,1,-0.6,4.9,4,49,0.8
COc1ccc(/C=C(/NC(=O)c2cccs2)C(=O)NCc2ccco2)cc1OC,-0.2,0,6%,8,6,-0.6,-3.3,-3,10,-0.8
Cc1nc(SCC(=O)Nc2ccc3c(c2)OCCO3)c2oc3ccccc3c2n1,.,15,-251%,.,.,.,5.4,4,8,-0.7

# A different layout for part of the listing above.
# Values run as follows: AF4-AF9 inh, T cruzi inh, Vif A3G, rRNA inh HTS, rRNA inh HTS OD600, rRNA inh HTS RFP, RanGTP-Imp inh, Beta cell apopt, Calb FLC, A1 inh
- CCc1nnc(NC(=O)c2c(OC)cccc2OC)s1
  ., -13, 2%&7%, ., ., ., -4.4, -2, -12, -0.1
- Cc1ccc(C(C)(C)NC(=O)C2CCC(=O)N(C3CCCCCC3)C2)cc1 (stereo unspecified)
  -1.6, 8, 2%, 1, 7, 0.7, 3.2, -1, 1, 0.8
- CCC(=NCc1ccccc1)c1c(C(F)(F)F)[nH]n(-c2nc3ccccc3s2)c1=O
  ., -2, 1%, ., ., ., -2.7, 0, -16, 0.5

# The results go on.
SMILES,AF4-AF9 inh,T cruzi inh,Vif A3G,rRNA inh HTS,rRNA inh HTS OD600,rRNA inh HTS RFP,RanGTP-Imp inh,Beta cell apopt,Calb FLC,A1 inh
O=C(O)c1cc(N/N=C/c2ccc3c(c2)OCCO3)ccc1Cl,-9.9,.,3%,-5,-7,-6.0,.,4,.,-7.2
C=C(C)COc1ccc(-c2ncncc2Oc2ccc(OC)cc2)c(O)c1,.,.,-6%&4%,.,.,.,3.5,3,3,-0.4
O=S(=O)(/N=C(\c1ccccc1F)N1CCCCC1)c1ccccc1,.,-4,-3%,.,.,.,-5.8,-2,-1,-0.2
Cc1ccc2c(c1)C1CN(C)CCC1N2C(=S)NC(=O)c1ccc(Cl)cc1Cl (stereo unspecified),3.4,15,3%,6,-1,-1.1,1.7,4,-11,0.4
O=C(NC1CCCCC1)N1CCN(Cc2ccco2)CC1,-10,5,-24%,26,11,2.7,-1.2,-5,3,0.9

# Source: PubChem BioAssay (several laboratories)
